Assay outcomes deposited in PubChem by National Center for Advancing Translational Sciences (NCATS).
StopGo FLuc: Primary qHTS Assay for Foot and Mouth Disease Virus Antivirals against NCGC Sytravon and CBC Compound Libraries: Firefly Luciferase Signal. Potency, µM (series often up to 57.5 µM), inactives show at the top dose signal change, negative = less light. AID 1745856, 2022. hit rate 0.23% among 120,000. HEK cells with a luciferase reporter of 2A StopGo recoding; active = well fitted falling curve with a large enough effect; inconclusive = small, poorly fitted or top-dose-only effect; inactive = no such curve, though single readings can be large or run the other way; note: nearly all actives have a fitted effect of over 60% in size; overnight with compound
StopGo RLuc: Primary qHTS Assay for Foot and Mouth Disease Virus Antivirals against NCGC Sytravon and CBC Compound Libraries: Renilla Luciferase Signal | HEK cells with a luciferase reporter of 2A StopGo recoding | Potency, µM (series often up to 57.5 µM), for inactives: at the top dose signal change, negative = less light | hit rate 0.32% among 120,000; active means well fitted falling curve with a large enough effect; inconclusive means small, poorly fitted or top-dose-only effect; inactive means no such curve, though single readings can be large or run the other way; note: nearly all actives have a fitted effect of over 55% in size; overnight with compound
* marks the source's active call; other numbers are inactive results; u = inconclusive; & = joins results of further samples; [ ] = dose if it differs, or a comment. % is set by controls: 0 for no effect and ±100 for the full control effect; potency is the fitted concentration of half-maximal effect. Only part of the results is shown; count on the stated rates, not on these rows.

Results follow in this order: StopGo RLuc	StopGo FLuc
- N#CC1=C(N)OC2=C(C(=O)CC(c3ccc(Cl)cc3)C2)C1c1ccccc1Cl (stereo not given)
    u	u
- CCOC(=O)c1ccc(NC(=O)CN2C(=O)COc3ccc(Cl)cc32)cc1
    -9%	1%
- Cc1ccc(/C=[N+](\[O-])c2ccccc2)cc1
    3%	0%
- COc1ccc(-c2ccc(=O)n(CC(=O)NCCc3ccccc3)n2)cc1
    5%&1%	13%&-8%
- Cc1cc(C(=O)Nc2ccccc2C(=O)O)ccc1NC(=O)CSc1ccccc1
    23%	74%[activator]
- CCOc1ccc(CNCCSc2nnnn2C)cc1
    5%	10%
- Cc1ccc(CC(=O)N2CCC(NS(=O)(=O)c3ccc(Cl)cc3)CC2)cc1
    62%[activator]	-13%
- CC(=O)NCCC12CC3CC(CC(C3)C1)C2
    12%	10%
- CCc1ccc(NC(=O)C2CCCN(S(=O)(=O)c3cccc4cccnc34)C2)cc1 (stereo not given)
    -2%	u
- CCCCN(C)CCCNC(=O)CN1C(=O)COc2ccc(S(=O)(=O)N3CCC(C)CC3)cc21
    3%	5%
- Cc1ccccc1NC(=O)Cn1c(=O)n(CC2CCC(C(=O)NC(C)C)CC2)c(=O)c2sccc21 (stereo not given)
    -3%	4%
- O=C(Nc1ccc(CC(=O)N2CCOCC2)cc1)c1cc(F)cc(F)c1
    -10%	7%
- CCOC(=O)N1CCN(C(=O)c2nn3c(C(F)(F)F)cc(-c4cccs4)nc3c2Cl)CC1
    0%	17%
- Cc1cc(C)c(NC(=O)C2CCCN(S(=O)(=O)c3c(C)noc3C)C2)c(C)c1 (stereo not given)
    -16%	u
- Cn1ccnc1SCC(=O)Nc1cc(Cl)ccc1Cl
    1%	62%[activator]
- Cc1ccc(C)c(NC(=O)Cn2c(=O)n(Cc3ccc4c(c3)OCO4)c(=O)c3oc4ccccc4c32)c1
    15%	-2%
- CCC(C)[C@@H](NC(=O)NCc1ccc(C)cc1)C(=O)OC (stereo not given in full)
    12%	3%
- CC1=C(C(=O)Nc2ccccc2)C(c2ccc(Cl)cc2Cl)NC(=S)N1 (stereo not given)
    -3%	-5%
- CCOC(=O)c1cc(-c2ccc(S(=O)(=O)N3CCN(c4cc(Cl)ccc4C)CC3)s2)on1
    -4%	0%
- C/C(=N/NC(N)=S)c1ccc(Cl)cc1Cl
    -7%	-11%
- Cc1ccc2oc(=O)c3cc(C(=O)Nc4ccccc4C(N)=O)sc3c2c1
    -10%	-6%
- COc1ccc(-c2nc3cnccc3o2)cc1NC(=O)c1ccccc1
    43%[activator]	0%
- COc1ccc2c(CN(C)CCOc3ccc(F)cc3)cc(=O)oc2c1
    1%	-5%
- Cc1ccc(NC(=O)c2ccc(NC(=O)N3CCSc4ncccc43)cc2)cc1Cl
    26%	99%[activator]
- CCCCOc1ccc(C(=O)C(CCC(CNC(C)(C)C)C(=O)c2ccc(OCCCC)cc2)CNC(C)(C)C)cc1 (stereo not given)
    28µM*	u
- CCc1cccc(NC(=O)Nc2ccc3c(c2)N(C)C(=O)c2ccccc2S3)c1
    -13%	-27%
- COc1ccc(Br)cc1CNC(=O)c1cc(=O)[nH]c2ccc(S(=O)(=O)N3CCCC3)cc12
    -2%	-8%
- COc1ccc(Nc2nc3ccccc3nc2NS(=O)(=O)c2cccs2)cc1OC
    26%	43%[activator]
- Cc1cc(C)c(NS(=O)(=O)c2cc(-c3cnc(C4CC4)o3)ccc2C)c(C)c1
    23%	25%
- CCC(C)NC(=O)c1cnn(-c2ccc(Cl)cc2)c1C1CCN(C(=O)OC(C)(C)C)CC1 (stereo not given)
    4%	-16%
- CCCCCCCc1ccc(C(=O)CCC(=O)O)cc1
    -4%	1%
- O=C(c1c[nH]c2ccccc12)C(Nc1cccc(CO)c1)c1ccccc1 (stereo not given)
    38%[activator]	0%
- Cc1ccc(CNC(=O)CSc2c(C(C)C)cnc3c2c(=O)n(C)c(=O)n3C)cc1
    -4%	2%
- Cc1c(C)c2ccc(OCC(=O)NCCc3ccc(S(N)(=O)=O)cc3)cc2oc1=O
    0%	3%
- CC(C)(C)c1nc(C(C)(C)NC(=O)C2Cc3ccccc3O2)no1 (stereo not given)
    17%	3%
- COc1ccc(-c2cc(C(=O)O)c3cc(C(C)C)ccc3n2)cc1
    16%	21%
- COc1cccc(CNC(=O)c2ccc3c(c2)sc2nc(-c4ccccc4)cn23)c1OC
    -3%	57%[activator]
- O=C(NCC1(N2CCOCC2)CCSC1)Nc1ccccc1 (stereo not given)
    -7%	0%
- COCCN1C(=O)c2n[nH]c(-c3ccco3)c2C1c1ccc(O)cc1 (stereo not given)
    22%	22%
- CCC1=C(c2ccc(C)cc2)S(=O)(=O)N=C1N1CCC(C(=O)N2CCCCC2)CC1
    28%	-12%

Profiles, quoted from the list.
CCCCCCCc1ccc(C(=O)CCC(=O)O)cc1 is listed as StopGo RLuc = -4%; StopGo FLuc = 1%
COCCN1C(=O)c2n[nH]c(-c3ccco3)c2C1c1ccc(O)cc1 (stereo not given) is listed as StopGo RLuc = 22%; StopGo FLuc = 22%

Back to the main list, starting three compounds before the break.
Results follow in this order: StopGo RLuc	StopGo FLuc
- O=C(NCC1(N2CCOCC2)CCSC1)Nc1ccccc1 (stereo not given)
    -7%	0%
- COCCN1C(=O)c2n[nH]c(-c3ccco3)c2C1c1ccc(O)cc1 (stereo not given)
    22%	22%
- CCC1=C(c2ccc(C)cc2)S(=O)(=O)N=C1N1CCC(C(=O)N2CCCCC2)CC1
    28%	-12%
- CCC(C)NC(=O)Cn1c(=O)n(CCCCCC(=O)Nc2ccccc2)c(=O)c2sccc21 (stereo not given)
    11%	35%[activator]
- O=C(Nc1cccc2cccnc12)C(c1ccccc1)c1ccccc1
    8%	-1%
- CC(=O)c1c(SCC(=O)Nc2ccc(F)cc2F)nc(=O)[nH]c1C
    5%	13%
- O=C(CSc1ccccc1C(=O)O)Nc1ccc2c(c1)OCCCO2
    -7%	49%[activator]
- Cc1ccc(NC(=O)c2ccccc2SCC(=O)NC2CC2)c(C)c1
    -13%	u
- Cc1ccc(F)c(S(=O)(=O)NCc2cccc3c2OCCO3)c1
    98%[activator]	17%
- CC(Oc1ccc(F)cc1)C(=O)Nc1cccc(-c2nc3ccccc3o2)c1 (stereo not given)
    -9%	25%
- Cc1ccc(CNC(=O)CCc2c(C)nn(-c3ccc(N4CCCC4)nn3)c2C)cc1
    11%	19%
- CC(=O)c1cccc(NC(=O)CC2SC(c3cc4ccccc4oc3=O)=NC2=O)c1 (stereo not given)
    u	7%
- Cc1ccccc1NC(=O)CSC1CCCC1
    24%	35%[activator]
- CCc1cccc(NC(=O)Nc2ccc(OC)cc2)c1
    102%[activator]	93%[activator]
- COc1ccc(/C=C/C(=O)NC2CCCC2)c(OC)c1
    39%[activator]	2%
- Cc1c(O)ccc2c(CN3CCCCC3)cc(=O)oc12
    7%	0%
- CCOC(=O)CC(NC(=O)Cn1nnc(-c2ccccc2F)n1)c1ccccc1Cl (stereo not given)
    0%	0%
- COc1ccccc1C(=O)Nc1ccc2oc(-c3ccc4ccccc4c3)nc2c1
    1%	79%[activator]
- Cc1ccccc1NC(=O)c1cccc2c(=O)c3c([nH]c12)CCCC3
    8%	12%
- CCCCNC(=O)c1ccc(C#N)cc1
    5%	0%
- Cc1nc2c(c(=O)[nH]1)C(c1cc(F)ccc1F)CC(=O)N2 (stereo not given)
    0%	8%
- Cc1cc(=O)oc2cc(OCC(=O)NCC3(N4CCN(C)CC4)CCCCC3)ccc12
    -2%	7%
- CCCNc1nc2ccccc2nc1C(=O)Nc1cc(OC)c(OC)c(OC)c1
    -4%	-1%

An excerpt from above in order of molecular weight, smallest number first.
Results follow in this order: StopGo RLuc	StopGo FLuc
- CCc1cccc(NC(=O)Nc2ccc(OC)cc2)c1
    102%[activator]	93%[activator]
- Cc1c(O)ccc2c(CN3CCCCC3)cc(=O)oc12
    7%	0%
- CCOC(=O)CC(NC(=O)Cn1nnc(-c2ccccc2F)n1)c1ccccc1Cl (stereo not given)
    0%	0%

Going on with the list.
Results follow in this order: StopGo RLuc	StopGo FLuc
- O=C(NCc1ccc(F)cc1)C1CCCN(c2ncnc3onc(-c4ccc(F)cc4)c23)C1 (stereo not given)
    -14%	11%
- Cc1cc(Nc2cc(Cl)ccc2C)n2nc(-c3ccccc3)nc2n1
    -1%	-7%
- COCc1ccccc1CNC(=O)c1sccc1C
    11%	0%
- CC(C)C(=O)/C(C#N)=C\c1ccc(-c2ccccc2F)o1
    0%	45%[activator]
- Cc1c(CCC(=O)NCCc2ccc(F)cc2)c(=O)oc2c(C)c(O)ccc12
    20%	4%
- O=C(NC1(c2cccc(Cl)c2)CCC1)NC1(c2cccc(Cl)c2)CCC1
    6%	3%
- CC(=O)c1ccc(S(=O)(=O)N2CCn3cccc3C2c2ccccc2F)cc1 (stereo not given)
    32µM*	13%
- C(=C\c1ccccc1)/CNC1CC1
    21%	12%
- Cc1cc(C)n(-c2ncnc3sc(C)c(-c4ccc(F)cc4)c23)n1
    16%	15%
- O/N=C/c1ccc(OCc2ccccc2)cc1
    0%	209%[activator]
- Cc1cccc(-c2cccc(N)c2)c1
    u	-3%
- COc1ccc(-c2nc(CSCC(=O)NC3CCCCCC3)co2)cc1
    u	-10%
- COc1ccc(C(=O)Nc2ccc3oc(C)nc3c2)c(OC)c1
    19%	217%[activator]
- CN1C(=O)CC(c2ccccc2)C1=O (stereo not given)
    -1%	-2%[11.5 µM]
- Cc1[nH]c2ccccc2c1C(=O)C(=O)N(C)Cc1ccc(C(=O)NC2CC2)cc1
    5%	-10%
- Cc1ccc(N/C(=C\C(=O)c2ccc(Br)cc2)C(F)(F)F)cc1
    8%	48%[activator]
- Cc1cccc(NC(=O)Cn2c(=O)n(CC3CCC(C(=O)NCCc4ccccc4)CC3)c(=O)c3ccccc32)c1 (stereo not given)
    4%	11%
- CCc1c(C)sc(NC(=O)Cc2ccccc2Cl)c1C#N
    10%	8%
- Cc1cccc(C(=O)Sc2ccc(Cl)cc2)c1
    -14%	-4%
- Cn1nc(C(=O)NCc2ccc(Cl)cc2)c2ccccc2c1=O
    6%	13%
- O=C(O)c1cc(-c2ccccc2F)on1
    -8%[1.06 µM]	14%
- CCCNC(=O)COc1ccc2ccc(=O)oc2c1
    -8%	22%
- C=CCNc1nc(C(=O)OCC(=O)NC(C)c2ccc(F)cc2)cs1 (stereo not given)
    13%	0%
- CCNc1c(NC(=O)NC(C)C)c(=O)oc2ccccc12
    -13%	-2%
- N#CCCN(CCC#N)C(=O)COc1cc(Cl)ccc1C(N)=O
    -2%	0%
- CC(C)CC(NC(=O)C(CCC(=O)OCc1ccccc1)NC(=O)OC(C)(C)C)C(=O)OCc1ccccc1 (stereo not given)
    -2%	-3%
- COc1cc(CNC(=O)c2cc(-c3ccccc3)n[nH]2)cc(OC)c1OC
    -13%	-17%
- Cc1ccc(-c2cc(Nc3ccccc3C(F)(F)F)nc(C)n2)cc1
    -4%	0%
- COc1ccc(-c2cc3nc(C)c(CCC(=O)N4CCN(c5cccc(Cl)c5)CC4)c(C)n3n2)c(OC)c1
    -10%	-12%
- O=C(COC(=O)Cc1n[nH]c(=O)c2ccccc12)Nc1ccc2ccccc2c1
    -3%	71%[activator]
- CCc1ccc(NC(=O)CN2C(=O)C(c3ccccc3)=NC23CCCCCC3)cc1
    -7%	21%
- CCOc1ccc(CNC(=O)Cn2c(=O)c3cccn3c3cccnc32)cc1
    2%	6%
- CCOCCCNC(=O)c1c(NC(=O)c2nc(SC)ncc2Cl)sc2c1CCCC2
    0%	129%[activator]
- COC(=O)Nc1ccc(CNC(=O)c2ccc(C)cc2)cc1
    30%[activator]	81%[activator]
- CC(C)(C)OC(=O)N1CCC(c2c(C(=O)NCCc3ccsc3)cnn2-c2ccccc2Cl)CC1
    24%	1%
- Cc1cc2nc(-c3ccc(NC(=O)c4ccc(OCC(C)C)cc4)cc3)oc2cc1C
    1%	75%[activator]
- Cc1cccn2c(=O)c(/C=C(\C#N)c3nc4ccccc4n3C)c(Oc3ccc(Cl)cc3)nc12
    -4%	-13%
- Cc1cc(OCCn2cc(C(=O)C(F)(F)F)c3ccccc32)ccc1Cl
    12%	0%
- CC(Sc1ccc(F)cc1)C(=O)NC(c1ccccc1)c1ccccc1 (stereo not given)
    21%	2%
- Cc1ccc(Nc2cc(C)c3ccccc3n2)c(C)c1
    -1%	275%[activator]
- Cc1ccc2oc(C(=O)Nc3c(C(=O)c4ccc(C)c(F)c4)oc4ccccc34)cc(=O)c2c1
    -13%	-17%
- COc1cc2c(=O)c(C(=O)c3ccc(F)cc3)cn(Cc3cccc(F)c3)c2cc1OC
    4%	-16%
- O=C(NCc1ccc2c(c1)OCO2)c1ccc2c(c1)N(Cc1ccc(F)cc1)C(=O)c1ccccc1S2=O (stereo not given)
    4%	-15%
- CC1CCCN(c2nc3c(c(=O)n(C)c(=O)n3C)n2CCSc2nc3ccccc3o2)C1 (stereo not given)
    -9%	-5%
